Beta apoptosis – beta cell apoptosis inhibition. INS-1E cytokine-induced death, ATP luminescence, 48 h; percent of positive-control rescue, neutral wells zero. protection from apoptosis, % (concentration not given with the values). 300,000 tested, 0.8% active;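 active = all replicates at 75% or more, or half of them and the mean; inconclusive = half reach 75% but not the mean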;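 note: 0% = cytokine-treated negative control wells and 100% = positive control rescue; higher means more ATP so stronger rescue from cytokine killing; wells of about 40 µL received 100 nL stock; the first replicate is given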
RanGTP-Impb inh – disruptors of Ran-importin-beta complex formation – biochemical, FRET, CFP-Ran, YFP-importin-beta, homogeneous, primary screen | cell-free CFP-Ran/YFP-importin-beta FRET ratio | inhibition, % (test concentration not listed) | 300,000 tested, 1.1% active;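 active = most replicates above 15%; inconclusive = exactly half above 15%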;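 note: 0% = DMSO wells and 100% = Ran loaded with GDP instead of GTP; wells of about 40 µL received 100 nL stock; the first replicate is given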
LANA-H2B inh – blocks KSHV LANA binding to histone H2A/H2B | inhibition, % (no concentration beside the values) | cell-free LANA-H2A/H2B peptide, fluorescence polarization | Q9QR71 | 320,000 tested, 0.6% active; in the data active = inhibition mostly above about 10%, no sharp cut-off; inactive = mostly below about 6.7%;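 note: stock transfer was 7.5 nL into about 10 µL; 0% = median of vehicle wells and 100% = median of positive control wells; one replicate is shown; the record names a cut of 25% in any replicate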
Target sequence (Q9QR71 whole entry, looked up): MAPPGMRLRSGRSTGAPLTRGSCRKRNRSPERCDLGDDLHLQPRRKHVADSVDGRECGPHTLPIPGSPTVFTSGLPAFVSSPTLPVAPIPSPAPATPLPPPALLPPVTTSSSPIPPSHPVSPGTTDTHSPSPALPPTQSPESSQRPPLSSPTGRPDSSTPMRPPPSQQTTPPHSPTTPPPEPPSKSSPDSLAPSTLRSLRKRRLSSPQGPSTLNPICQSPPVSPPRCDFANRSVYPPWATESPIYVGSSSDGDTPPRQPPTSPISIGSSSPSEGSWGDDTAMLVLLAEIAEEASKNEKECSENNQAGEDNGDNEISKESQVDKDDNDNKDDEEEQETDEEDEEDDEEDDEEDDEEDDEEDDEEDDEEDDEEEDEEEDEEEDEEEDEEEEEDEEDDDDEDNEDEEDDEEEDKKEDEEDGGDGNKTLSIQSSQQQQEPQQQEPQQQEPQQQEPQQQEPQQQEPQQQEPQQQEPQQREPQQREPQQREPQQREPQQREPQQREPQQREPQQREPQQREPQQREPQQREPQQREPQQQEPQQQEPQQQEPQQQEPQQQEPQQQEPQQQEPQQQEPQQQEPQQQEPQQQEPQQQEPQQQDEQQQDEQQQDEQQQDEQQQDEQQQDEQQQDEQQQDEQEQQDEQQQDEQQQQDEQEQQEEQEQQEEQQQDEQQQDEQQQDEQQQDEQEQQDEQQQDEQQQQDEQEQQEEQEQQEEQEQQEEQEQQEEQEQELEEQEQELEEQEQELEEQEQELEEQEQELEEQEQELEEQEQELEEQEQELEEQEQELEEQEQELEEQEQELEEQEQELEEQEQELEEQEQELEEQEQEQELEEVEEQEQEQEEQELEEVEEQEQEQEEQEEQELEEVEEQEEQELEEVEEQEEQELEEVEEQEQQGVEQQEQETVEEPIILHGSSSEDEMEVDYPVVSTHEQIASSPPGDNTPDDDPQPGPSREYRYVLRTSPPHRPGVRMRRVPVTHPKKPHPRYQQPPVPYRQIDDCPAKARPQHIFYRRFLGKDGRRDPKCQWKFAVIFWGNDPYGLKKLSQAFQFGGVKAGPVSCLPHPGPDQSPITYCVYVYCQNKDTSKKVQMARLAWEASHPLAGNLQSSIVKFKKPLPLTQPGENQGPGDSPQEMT
UCH37 inh – human UCH37 deubiquitinating enzyme inhibition. Q9Y5K5. purified proteasome/UCH37, Ub-AMC cleavage fluorescence. inhibition, % (no concentration beside the values). 330,000 tested, 0.33% active;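 active = mean of two replicates above 20%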;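 note: 0% = compound-free wells with enzyme and 100% = wells lacking proteasome; stock transfer was 100 nL into about 20 µL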
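system = Proteasome-associated human UCH37 deubiquitinase | amount = 0.15 nM proteasome as dispensed | medium = pH 7.4 Tris-HCl (50 mM) with ovalbumin, ATP-MgCl2, DTT | incubation = 30 min preincubation with enzyme, 25 min cleavage at room temperature | detection = AMC fluorescence 355/460 nm | read-out basis = percent inhibition | controls = no-proteasome and no-compound wells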
Beta2AR agonist – agonists of human beta-2 adrenergic receptor inducing internalization; AID 504454; Am2.2-beta2AR cells, FAP receptor internalization, flow cytometry; reference of the scale not given here; 340,000 tested, 0.43% active; response, % (no concentration beside the values);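 active = response above a set limit, near 3 SD of response in nonfluorescent compounds, cut at about 42% in these data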;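 note: stock transfer was 100 nL into about 11 µL; a reference agonist was the positive control; negative values mostly stem from fluorescent compounds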
A1 inh – inhibitors of the anti-apoptotic protein A1, read as caspase activation | MEF A1-2A-BIM cells, Caspase-Glo 3/7 luminescence, 3 h; percent of clofoctol response, vehicle zero | caspase activation, % (concentration not given with the values) | 330,000 tested, 0.066% active | AID 2462;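 active = over half of replicate activation scores above 10%, or exactly half above 10 with the replicate mean above 10; inconclusive = replicate mean below 10 yet half the replicates above 10; inactive = over half of replicates below 10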;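 note: wells of about 30 µL received 50 nL stock; many hits fall short of the cut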
Calb FLC – C. albicans growth modulation with fluconazole. C. albicans CaCi-2 (fluconazole-resistant clinical isolate) + fluconazole, Alamar Blue growth, 48 h. growth inhibition, % (test concentration not listed). 300,000 tested, 0.57% active;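 active = most replicates above 75%; inconclusive = exactly half above 75%; inactive = most below 75%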;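 note: all wells also contain fluconazole at 8 µg/ml as a sub-toxic cotreatment; 0% = median of DMSO wells and 100% = median of geldanamycin control wells; wells of about 8 µL received 7.5 nL stock; the first replicate is given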
T cruzi repl – T. cruzi replication inhibition; T. cruzi beta-gal in NIH3T3, luminescence, 90 h; inhibition, % (no concentration beside the values); 300,000 tested, 1.4% active;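 active = mean inhibition across valid replicates above about 55%, limit read from the data; inconclusive = mean below that limit but half or more replicates reach it; inactive = mean below it, under half of replicates reach it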;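 note: signal also drops with host cell toxicity which is not excluded here; 0% = plate median of DMSO wells and 100% = zero luminescence signal; higher percent means less beta-gal luminescence so fewer parasites; stock transfer was 50 nL into about 50 µL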
The depositor's hits bear a star; ? = inconclusive; . = no result given.

SMILES	Beta apoptosis	RanGTP-Impb inh	LANA-H2B inh	UCH37 inh	Beta2AR agonist	A1 inh	Calb FLC	T cruzi repl
CC(NC(=O)CCn1nc(-c2ccc(Cl)cc2)ccc1=O)c1ccccc1 (stereo not given)	5	1.0	-3.9	1.3	3	0.0	3	-8
NS(=O)(=O)c1ccc(CCNC(=O)c2ccc(Cl)c(S(=O)(=O)N3CCCCC3)c2)cc1	38	.	1.8	4.1	16	2.3	.	.
COC(=O)C(/C=N/OCc1ccc([N+](=O)[O-])cc1)NC(=O)c1cccc(Cl)c1 (stereo not given)	-3	6.9	1.9	.	24	-0.6	-2	-17
Cc1cc(=S)cc(C)n1CCCn1ccnc1	2	2.5	-5.3	3.5	-5	-0.5	-2	-18
COc1ccc(S(=O)(=O)NCCC(C)C)cc1OC	-8	-2.1	9.5	1.3	3	-0.2	-5	-8
O=C(NCc1ccccc1)C1c2ccccc2Oc2ccccc21	-6	1.2	-3.2	1.4	-8	1.3	118*	12
CCOc1ccc(NC(=O)c2cc(=O)[nH]c3ccccc23)cc1	.	9.2	-0.4	3.3	-5	0.1	-1	-2
c1ccc2c(c1)OCCOCCOCCOCCOCCOc1ccccc1OCCOCCOCCO2	6	1.0	-4.6	0.6	-4	0.9	1	44
Cc1cc(C)c(NC(=O)C[N+](C)(C)CC(O)COc2cccc3ccccc23)c(C)c1 (stereo not given)	4	-5.7	-1.9	6.1	-6	0.6	-5	40
CN1C[C@@H]2C[C@@H](c3cccn3-c3nccs3)N3CCC[C@@]23C1=O	-6	2.1	0.7	3.5	-2	-0.4	-31	8
Cc1ccccc1NC(=O)Cc1nnc(SCC(=O)Nc2ccccc2)n1C	-5	0.2	-1.2	3.2	2	-1.4	0	1
COC(=O)c1c(NC(=O)COC(=O)CC(NC(C)=O)c2ccccc2)sc(C)c1C (stereo not given)	-1	2.0	0.6	-4.2	14	-0.2	-2	3
COc1ccc(C(=O)CCC(=O)Nc2cccc(Cl)c2)cc1	-8	0.5	2.2	1.8	10	-0.2	-2	3
CC(C)Cc1nc2oc3c(Cl)ncnc3c2c2c1CCC2	-3	6.4	-3.1	1.2	110*	0.1	9	-4
C/C(=N\NS(=O)(=O)c1ccc([N+](=O)[O-])cc1)c1ccc2c(c1)OCO2	-1	1.1	-0.1	.	12	0.6	-3	2
CC(CCCC(C)(C)O)NC(=O)c1cc(COc2ccc3ncccc3c2)on1 (stereo not given)	88*	0.8	-7.1	6.7	-3	-0.5	26	16
CCNC(=O)C(=O)N/N=C/c1cc([N+](=O)[O-])ccc1O	1	4.6	-3.5	.	-3	-0.3	14	-6
N#CC(C#N)=Cc1cn(-c2ncc(C(F)(F)F)cc2Cl)c2ccccc12	4	10	1.1	-4.2	66*	0.1	-1	-8
CC1=C(C(=O)Nc2ccccc2C)C(c2ccccc2)NC(=O)N1 (stereo not given)	-6	4.4	-1.5	5.8	0	0.1	-2	-6
COc1ccc(NC(=O)c2ccc3nc(C)sc3c2)cc1	-1	10	0.4	5.6	5	-2.6	?	-4
Cc1cc(Br)cc(C)c1OCC(=O)NNC(=O)CCC(=O)NCc1ccccc1	-4	.	-2.1	2.6	-3	-1.3	-10	0
COC(=O)CC(N)c1ccc(OC)c2ccccc12 (stereo not given)	-7	0.8	1.1	1.0	-6	-0.6	-1	-2
CCOc1ccc(C(=O)CCc2nc3ccccc3s2)cc1	14	-0.3	-4.0	5.3	0	0.0	17	16
CCOC(=O)c1cn(Cc2cccc(Cl)c2)c2cc(C)nn2c1=O	0	0.7	4.1	-48	1	-0.1	-11	2
CC(=O)Nc1cccc(NC(=O)CSc2ccc(C(F)(F)F)cc2[N+](=O)[O-])c1	-5	-1.1	-6.0	2.6	-13	-0.2	0	7
Cc1[nH]n2c(=O)c(C#N)c(-c3ccccc3)nc2c1-c1ccccc1	4	1.0	-2.3	2.5	3	0.8	3	2
COc1ccccc1CNC(=O)C1CCC(CNS(=O)(=O)c2ccc(NC(C)=O)cc2)CC1 (stereo not given)	-6	7.0	-5.9	-1.7	-5	-1.3	-3	-9
CC1=CC(=O)C=C/C1=C(/c1ccc(O)cc1C)c1ccccc1S(=O)(=O)O	3	.	.	4.6	-2	-0.6	.	.
Cc1cc(N2CCCC2=O)ccc1S(=O)(=O)Nc1c(C)nn(C)c1C	-1	0.2	1.6	-2.2	2	0.5	30	-20
O=C(Nc1ccccc1)c1ccc(NC(=O)C2CC2)cc1	3	1.1	3.2	-3.9	2	0.9	-11	9
Cc1cccc(C)c1NC(=O)COC(=O)c1ccc([N+](=O)[O-])o1	-3	3.8	-8.8	29*	2	0.2	-8	4
CC(=O)NC(CC(=O)NNC(=O)C(C)Oc1ccccc1F)c1ccccc1 (stereo not given)	2	0.4	-16	1.6	-4	0.8	-2	-6
O=C(NNC(=O)c1ccncc1)Nc1ccccc1	-7	-5.0	3.1	4.6	0	0.1	-2	-12
O=S(=O)(c1ccc(F)cc1)N1CCN(C(=S)NCc2ccccc2)CC1	2	0.9	10.0	1.8	-1	-0.5	36	-7
O=S(=O)(Nc1cccc(-c2ccc3nncn3n2)c1)c1cccs1	-2	3.6	-7.2	0.9	-13	0.2	8	-16
CCCCc1nc2cc(C(=O)N3CCCCC3CCO)ccc2o1 (stereo not given)	-5	2.5	-5.1	1.6	-7	-2.9	3	4
CCSc1ncc(Cl)c(C(=O)Nc2ccccc2F)n1	-17	-0.2	0.2	-10	-13	-1.1	1	-3
Cc1onc(-c2ccccc2Cl)c1C(=O)Nc1nc2c(s1)CCCC2	.	?	-1.1	0.3	2	-0.6	-2	4
CCN1C(=NCCOC)N[C@@H](c2cccs2)C(C(=O)OC)=C1C	1	4.6	6.0	-1.5	-3	-0.3	-7	-10
COc1cc(NC(=O)CCN2CCOCC2)cc(OC)c1	-3	0.2	9.0	-2.4	-3	0.7	24	-7
CN(Cc1c(F)cccc1Cl)c1ccc(S(=O)(=O)N2CCOCC2)cn1	2	-6.8	3.6	1.2	14	-0.1	39	15
COc1ccc(C2=NN(C(=S)Nc3ccccc3)C(c3ccccc3)C2)cc1 (stereo not given)	15	-1.4	0.8	2.0	-1	-0.2	-6	23
COc1ccc(/C(N)=N/OC(=O)COc2ccccc2Cl)cc1	-1	0.8	-2.2	3.4	1	-0.6	-10	7
Cc1sc2nc(C3CC3)nc(SCC(=O)N3CCc4ccccc4C3)c2c1C	-10	-1.2	1.1	5.9	1	1.4	-7	21
Cc1cccc(NC(=O)N2CCCC2C(=O)NCc2ccccc2)c1 (stereo not given)	.	-2.6	6.6	5.8	-8	0.8	12	-8
O=C(Nc1nnc(SCc2ccccn2)s1)C1CC(=O)N(c2ccc(F)cc2)C1 (stereo not given)	-5	-3.1	-0.2	3.2	2	0.0	-1	-5
CSc1ccc(CCNC(=O)CS(=O)(=O)Cc2nc(-c3ccccc3F)oc2C)cc1	-4	-3.1	-5.8	0.0	-10	-0.2	0	1
COc1ccc(NC(=O)Cc2ccsc2)cc1S(=O)(=O)N1CCCCC1	-5	.	3.0	-0.9	-2	0.6	.	.

Reprinted from the part before: 3 compounds, followed by the next part.
SMILES	Beta apoptosis	RanGTP-Impb inh	LANA-H2B inh	UCH37 inh	Beta2AR agonist	A1 inh	Calb FLC	T cruzi repl
O=C(Nc1nnc(SCc2ccccn2)s1)C1CC(=O)N(c2ccc(F)cc2)C1 (stereo not given)	-5	-3.1	-0.2	3.2	2	0.0	-1	-5
CSc1ccc(CCNC(=O)CS(=O)(=O)Cc2nc(-c3ccccc3F)oc2C)cc1	-4	-3.1	-5.8	0.0	-10	-0.2	0	1
COc1ccc(NC(=O)Cc2ccsc2)cc1S(=O)(=O)N1CCCCC1	-5	.	3.0	-0.9	-2	0.6	.	.
O=C(CCSc1nnc(-c2ccc(O)cc2)o1)N1CCOCC1	3	0.5	5.5	3.6	-3	1.6	-4	-13
COc1ccc(CCNC(=O)COC(=O)C2CC2)cc1	-5	-3.0	10	-1.1	-2	0.7	7	0
COc1ccc(NC(=S)NC(=O)/C=C/c2ccc(F)cc2)cc1	-3	0.1	-3.4	8.0	10	0.3	-1	-6
COC(=O)c1csc(S(=O)(=O)N2CCCCC2)c1OC	0	-1.1	-3.7	2.0	12	1.1	8	-3
Cc1nn2c(=O)cc(COC(=O)c3ccc(S(=O)(=O)N4CCCCC4)cc3)nc2s1	-10	0.1	-6.9	.	-2	0.2	-3	-18
COn1c(SCC(N)=O)nc2ccccc2c1=O	-1	3.4	0.6	-1.1	-1	-0.2	.	7
C=CCNC(=S)Nc1cc(C)ccn1	-2	-8.4	-2.9	0.9	-6	-1.2	-25	-5
COc1ccc(CNC(=O)COC(=O)c2cc(-c3cccs3)nc3ccccc23)cc1OC	-3	2.9	2.0	-63	-12	0.2	19	-25
CCCN(c1ccc(C)cc1)c1nc(=O)c2cccnc2s1	3	0.0	0.8	5.2	-19	0.2	1	-5
O=S(=O)(CCc1ccccc1)N1CCOCC1	-1	1.3	7.0	0.4	17	0.1	-5	-8
CC(=O)NC(NC(=S)Nc1ccc(S(N)(=O)=O)cc1)C(Cl)(Cl)Cl (stereo not given)	-6	-3.0	-3.7	0.2	0	-0.9	1	-14
CC(C)C(NS(=O)(=O)c1ccccc1F)C(=O)N1CCc2ccccc2C1 (stereo not given)	.	?	0.5	8.0	-4	0.2	3	2
Cc1cccc(NC(=O)c2sc(NC(=O)c3ccco3)c(C#N)c2C)c1C	2	4.2	0.4	-3.8	9	-0.2	11	-6
Cc1ccc(OCCCn2ccnc2)c([N+](=O)[O-])c1	-8	?	1.1	0.8	3	0.4	?	21
CC1(C)OC(=O)N(c2ccccn2)C1(C)O (stereo not given)	-2	0.8	3.5	-0.2	8	-0.7	-2	-4
CC(=O)c1nc(N2C(=O)CC(Cc3cccc(C)c3)C2=O)sc1C (stereo not given)	-3	1.5	3.2	4.1	7	-0.9	-8	-7
Cc1ccc(-n2ncc3c(NNC(=O)c4ccco4)ncnc32)c(C)c1	-13	1.6	5.4	2.1	0	0.4	3	-11
O=C1CSC(=Nc2ccc(O)cc2)N1c1ccc(O)cc1	-10	.	4.8	1.7	-6	-0.2	18	.
Cc1[nH]c2ccccc2c1C(=O)CSC(=S)N(C)C	-8	0.1	-0.4	7.2	-42	0.7	-5	-8
O=C(CCn1c(=O)[nH]c2ccccc2c1=O)N1CCN(c2cccc(C(F)(F)F)c2)CC1	13	3.0	0.9	5.1	-16	-0.3	0	5

Beta2AR agonist, hit marks shown above.
compound | RanGTP-Impb inh | LANA-H2B inh | UCH37 inh | Beta2AR agonist
CC(C)Cc1nc2oc3c(Cl)ncnc3c2c2c1CCC2 | 6.4 | -3.1 | 1.2 | 110*
N#CC(C#N)=Cc1cn(-c2ncc(C(F)(F)F)cc2Cl)c2ccccc12 | 10 | 1.1 | -4.2 | 66*

Source: PubChem BioAssay (several laboratories)
